# AmpC nodet inh: inhibitors of E. coli AmpC beta-lactamase without detergent | P00811 | AmpC nitrocefin hydrolysis, absorbance 480 nm, no detergent; potencies from a single point are estimates | Potency, µM (titrated, usually from 28.7 µM), inactives show top-dose activity change, negative = inhibition | 1.8% of 71,000 active; active = falling curve, for most hits resting on a single point; inconclusive = weak or doubtful change; inactive = flat or rising curve; note: % of control where 0% means no effect; about half of the hits show no inhibition at the top dose; a quarter of the inactives give rising signals
# Target sequence (P00811 whole entry, looked up): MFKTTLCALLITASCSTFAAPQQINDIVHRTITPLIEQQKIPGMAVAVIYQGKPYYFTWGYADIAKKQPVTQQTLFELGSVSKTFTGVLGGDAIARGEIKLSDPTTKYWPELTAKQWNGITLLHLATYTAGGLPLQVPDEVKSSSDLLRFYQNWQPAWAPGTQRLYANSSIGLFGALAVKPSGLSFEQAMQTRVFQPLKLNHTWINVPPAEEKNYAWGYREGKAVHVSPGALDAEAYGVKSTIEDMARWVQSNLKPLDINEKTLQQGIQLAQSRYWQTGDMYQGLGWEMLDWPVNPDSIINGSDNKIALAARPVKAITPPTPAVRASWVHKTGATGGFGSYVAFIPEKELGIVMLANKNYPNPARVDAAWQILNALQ
#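 Enzyme, pH 7.0 phosphate. Compound titrations were pre-incubated with AmpC for 15 min at room temperature before nitrocefin (stock 800 uM) addition; product formation was recorded at 480 nm every 20 s for 4 min.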
# Starred values were filed as active, the others as inactive; & = joins results of further samples; [ ] = dose if it differs, or a comment. Potency is the fitted concentration of half-maximal effect. A portion of the library; count on the stated rates, not on these rows.
no.	canonical_smiles	AmpC nodet inh
1	O=c1[nH]c(=O)n(CCO)c2nnn(Cc3ccccc3)c12	-2%
2	O=C(NC1CCC(NC(=O)C(F)(F)C(F)F)CC1)C(F)(F)C(F)F (stereo not drawn)	2%
3	O=C(C1CCN(S(=O)(=O)c2cccs2)CC1)N1CCCCCC1	26%
4	NCCc1ccc(O)cc1	3%&-5%&10%
5	Cc1cccc(C)c1NC(=O)CSCCO	1%
6	O=c1cc(-c2ccccc2O)oc2cc(O)cc(O)c12	-10%
7	COc1ccccc1-n1c(CNC(=O)c2ccccc2)nnc1SCC(=O)Nc1nnc(C)s1	45%
8	CCC(C)NS(=O)(=O)c1cccs1 (stereo not drawn)	0%
9	c1ccc(CC2CNc3ccccc3CN2)cc1 (stereo not drawn)	-22%
10	CC(C)C(c1nnnn1C1CCCC1)N1CCN(C(=O)c2ccco2)CC1 (stereo not drawn)	26%
11	C/C(=N\O)C1(C)N(O)C(C)(C)C(c2ccc(Br)cc2)=[N+]1[O-] (stereo not drawn)	13%
12	Cc1cc(NC(=O)CCOc2ccccc2)no1	-10%
13	CC1Cc2ccccc2N1C(=O)CSc1nnc2n1C(C)(C)Cc1ccccc1-2 (stereo not drawn)	41%
14	O=C(Nc1cccc(F)c1)N1CC2(CCN(C(=O)c3ccncc3)CC2)C1	86%
15	CCN(CCCNC(=O)C1CCN(S(=O)(=O)c2c(C)[nH]c(=O)[nH]c2=O)CC1)c1cccc(C)c1	22%
16	COc1ccc(S(=O)(=O)CCc2nc3ccccc3s2)cc1	1%
17	CCOC(=O)c1ccc2[nH]cc(C(C)=O)c(=O)c2c1	5%
18	COc1ccc(NC(=O)Cn2nnc(C(N)=O)c2N)c(OC)c1	4%
19	CN(C)C(=O)c1ccc(-c2cc(-n3ccnc3)ncn2)cc1	-18%
20	CCCC[C@H]1C(=O)N(c2ccccc2)N(c2ccc(O)cc2)C1=O	-18%[12.8 µM]
21	CCN(CC)CCCN1C(=O)c2oc3ccccc3c(=O)c2C1c1cccnc1 (stereo not drawn)	10%
22	O=C(Nc1ccccc1)N1CCCC2(CCN(S(=O)(=O)c3ccccc3)CC2)C1	14%
23	COC(=O)COc1ccc(S(=O)(=O)Nc2ccc3c(c2)OCO3)cc1	-11%
24	COc1ccc2c(c1)c(C(=O)N1CCN(C)CC1)c(C)n2-c1ccccc1	85%
25	COc1ccccc1CNC(=O)c1ccc(CNc2c(N3CCCC3)c(=O)c2=O)cc1	-7%
26	CC1(C)[N+]([O-])=C2C(=[N+]([O-])C1(C)C)c1ccccc1/C2=N\O	1%
27	CC(=O)C1=C(O)C=C(c2ccco2)CC1c1ccco1 (stereo not drawn)	-13%
28	COc1ccc(-c2cc(C(F)F)n3ncc(C(=O)N4CCSCC4)c3n2)cc1	82%
29	Cc1onc(-c2ccccc2Cl)c1C(=O)NCc1ccco1	38%
30	COC(=O)c1c(NC(=O)C2CC2)sc2c1CCN(C(C)=O)C2	20%
31	Clc1ccccc1-c1ccc2ncnc(NCc3cccnc3)c2c1	111%
32	CS(=O)(=O)N(CC(=O)NCc1ccc2c(c1)OCO2)Cc1ccccc1	2%
33	O=C(Oc1ccccc1)N1CCC2(CCCN(Cc3ccccc3)C2)CC1	25%
34	O=C(c1ccco1)N1CCC2(CCN(Cc3ccccc3)CC2)CC1	-17%
35	COc1ccc2[nH]c(=O)c(CN(Cc3nnnn3Cc3ccco3)C3CCCCC3)cc2c1	30%
36	COc1ccc(OC)c(NC(=O)C(CC(C)C)NC(=O)C2CCCCC2)c1 (stereo not drawn)	12%
37	COc1ccc(NC(=O)CSC2=NC(=O)CC(C)=N2)cc1	2%
38	Cc1cccc(C(=O)NC2CC3CCCC(C2)N3C(=O)NC2CCCCC2)c1 (stereo not drawn)	19%
39	Cc1scc(C(=O)Nc2ccon2)c1-c1ccccc1	-7%
40	Cc1ccc2c(NC(=O)C3CC3)cccc2n1	-7%
41	CC1CCN(Cc2nc3c(c(=O)n(C)c(=O)n3C)n2CCc2ccccc2)CC1	97%
42	CCOC(=O)N1CCN(c2nc(N(c3ccccc3)c3ccccc3)nc(-n3ccnc3)n2)CC1	89%
43	Cn1c(=O)[nH]c(=O)c2c1nc(N1CCCCCC1)n2Cc1cccc2ccccc12	2%
44	Cn1c(CN2CCOCC2)nc2cc(NC(=O)c3ccc(F)cc3)ccc21	22%
45	Cc1cc(-c2ccco2)n(CC(=O)O)n1	-1%
46	Cc1cc(NC(=O)CSc2nc3c(c(=O)n2-c2ccccc2)SC(C)C3)no1 (stereo not drawn)	-6%
47	CCn1nc(NC(=O)c2ccncc2)c2cc3cccc(C)c3nc21	94%
48	Cc1cc(/C=C(/C#N)c2cccc(F)c2)c(C)n1-c1cccnc1	40%
49	O=C(CSc1n[nH]c(-c2ccncc2)n1)Nc1ccccn1	-4%
50	CC1CCN(C(=O)c2ccc3c(c2)OCCO3)CC1	3%

# Quoted at random: five records from the list, in no set order.
no.	canonical_smiles	AmpC nodet inh
36	COc1ccc(OC)c(NC(=O)C(CC(C)C)NC(=O)C2CCCCC2)c1 (stereo not drawn)	12%
41	CC1CCN(Cc2nc3c(c(=O)n(C)c(=O)n3C)n2CCc2ccccc2)CC1	97%
35	COc1ccc2[nH]c(=O)c(CN(Cc3nnnn3Cc3ccco3)C3CCCCC3)cc2c1	30%
28	COc1ccc(-c2cc(C(F)F)n3ncc(C(=O)N4CCSCC4)c3n2)cc1	82%
31	Clc1ccccc1-c1ccc2ncnc(NCc3cccnc3)c2c1	111%

# (next part)
no.	canonical_smiles	AmpC nodet inh
51	COc1ccc(CNc2cc(C)nc3ncnn23)c(OC)c1	7%
52	Cc1ccc(-c2cn(S(=O)(=O)c3cccc4nsnc34)nc2N)cc1	-13%
53	CCOC(=O)Cc1cc(=O)n2[nH]c(C)cc2n1	2%
54	CCSc1nc(O)c(CC)c(=O)n1C(C)CC (stereo not drawn)	-9%
55	O=c1c2ccccc2nc(-c2cccs2)n1-c1cnccn1	-8%
56	CSc1nnc2c3c4c(sc3nc(-n3nc(C)cc3C)n12)COC(C)(C)C4	79%
57	c1ccc2c(c1)Cn1nnnc1-2	-2%
58	COc1ccccc1CNC(=O)C(NC(=O)C1CCCCC1)C(C)C (stereo not drawn)	-5%
59	COC(=O)c1ccc(C23CC2(C(NP(=O)(c2ccccc2)c2ccccc2)c2ccccc2)C3)cc1 (stereo not drawn)	99%
60	O=C(c1ccc(Cl)cc1)c1ccccc1C(=O)N1CCOCC1	16%
61	COc1ncc2nc(-c3cc(F)cc(F)c3)c(=O)n(C[C@H]3CCCO3)c2n1	11%
62	O=C1NC(c2ccncc2)Nc2sc3c(c21)CCCC3 (stereo not drawn)	35%
63	Cc1nn(-c2ccc(F)cc2)c2sc(C(=O)N3CCCCCC3)cc12	68%
64	CCCn1c(SCC(=O)Nc2nc3c(s2)CCCC3)nc2c1c(=O)n(C)c(=O)n2C	101%
65	COc1cc2c(cc1OC)[C@H](c1ccccc1)CN(C)CC2	9%
66	CCOC(=O)c1ccccc1Nc1cc(C)nc2nc(C)nn12	69%
67	O=C1CC(c2ccc(F)c(Br)c2)C2=C(CCCC2=O)N1 (stereo not drawn)	3%
68	Clc1cnc(Oc2ccc(Oc3ncc(Cl)cc3Cl)cc2)c(Cl)c1	4%
69	COc1ccc(CNC(=O)c2ccc(=O)oc2)cc1OC	-2%
70	Cc1ccc(S(=O)(=O)NCCCCCC(=O)NC(C)(C)CO)cc1	48%
71	CCOC(=O)c1sc(Nc2nc3c(OC)cccc3s2)nc1C	85%
72	O=C(NC1CCN(C(=O)N2c3ccccc3Sc3ccccc32)CC1)c1ccco1	156%
73	C=CCn1c(N)cc(=O)nc1SCC(=O)Nc1ccccc1	-1%
74	CS(=O)(=O)N(CCc1ccccc1)CC(=O)N1CCN(Cc2ccc3c(c2)OCO3)CC1	134%
75	Cc1ccc(C(O)c2nc3ccccc3n2C(C)C)cc1 (stereo not drawn)	79%
76	O=C(NCc1cccnc1)c1noc2c1CCCCC2	-1%
77	Nc1nc(N)nc(CCCc2nc(N)nc(N)n2)n1	2%[5.75 µM]
78	COc1ccc(CCNC(=O)CCCn2c(SCC#N)nc3ccccc3c2=O)cc1OC	107%
79	O=C(Nc1ccc(F)cc1F)c1cccnc1	-4%
80	COc1ccc(C(=O)N2CCC(n3c(C)nc4cc(F)ccc43)CC2)cc1OC	59%
81	CCn1cc(C(=O)Nc2ccc(-n3cnnn3)c(OC)c2)c(=O)c2ccc(C)nc21	15%
82	Cn1c(=O)c2c(ncn2CCSS(=O)(=O)O)n(C)c1=O	0%[5.75 µM]
83	Cc1ccc(C(=O)NC2CC(C)(C)NC(C)(C)C2)c(C)c1	-1%
84	Cc1cc(NC(=O)CN2CCN(c3ncccn3)CC2)no1	2%
85	N[C@@H]1CCc2cc(O)c(O)cc2C1	-10%
86	O=C(CNC(=O)c1cc2ccccc2o1)NCc1cccs1	0%
87	COc1ccc(-c2cc(C(=O)NC(C)C)no2)cc1	0%
88	COC(=O)C(NC(=O)c1ccccc1)=C1C=C(C)OC(C)=C1	4%
89	O=C(c1ccco1)N(CCCN1CCOCC1)c1nc(-c2ccc(F)cc2)cs1	124%
90	NCC[C@H](O)C(=O)N[C@H]1C[C@@H](N)[C@@H](O[C@H]2O[C@@H](CN)[C@@H](O)[C@@H](O)[C@@H]2O)[C@@H](O)[C@@H]1O[C@H]1O[C@@H](CO)[C@@H](O)[C@@H](N)[C@@H]1O	-4%[12.8 µM]
91	CCOC(=O)c1cc(C#N)c(NCc2ccccc2)nc1C	-8%
92	COc1ccccc1-n1cnc(N)c1C(=O)c1ccccc1	2%
93	COc1ccc2cc3cc(C(=O)NCCCN4CCOCC4)oc3nc2c1	31%
94	O=C(Nc1ccc2ccccc2c1)c1cnccn1	0%
95	NC(=O)c1nc(N2CCOCC2)nc(N2CCOCC2)n1	4%
96	C=CCOc1ccc(C2N3CC4(CC)CN2CC(CC)(C3)C4=O)cc1 (stereo not drawn)	44%
97	O=C(NCCc1ccc2c(c1)OCO2)C1CCN(S(=O)(=O)c2ccc(Cl)cc2)CC1	15%
98	CCCN(CCC)Cc1c(C(=O)OCC)nnn1-c1nonc1N	16%
99	CCOc1ccc(-c2cn(CCC#N)cn2)cc1	5%
100	CSc1nnc2c(n1)OC(C1CC=C(C)CC1)Nc1ccccc1-2 (stereo not drawn)	8%

# Next entries.
no.	canonical_smiles	AmpC nodet inh
101	CC(CCc1ccccc1)NCc1ccncc1 (stereo not drawn)	-6%
102	Cc1ccc2c(C)nc(NC3=NCN(Cc4ccccc4)CN3)nc2c1	6%
103	Cn1nnnc1SCC(=O)N(C1CCCCC1)C1CCCCC1	28%
104	Cc1ccc(CN2CC3CC(C2)c2cccc(=O)n2C3)cc1 (stereo not drawn)	24%
105	C=CCn1c(C(C)NC(=O)CCC)nc2ccccc21 (stereo not drawn)	6%
106	Cc1ccc(-n2c3c(cc(C(=O)O)c2=O)C(=O)CC(C)(C)C3)cc1	-13%
107	Nc1nc(-c2ccccc2)cc(N2CCCCC2)n1	10%
108	CCCCOC(=O)c1ccccc1C(=O)OCCCC	10%
109	CC(C)(C)c1ccc(C(=O)N2CCC(C(=O)NCC3CCCO3)CC2)cc1 (stereo not drawn)	49%
110	COc1cccc(Nc2ncc3nc(-c4cc(F)cc(F)c4)c(=O)n(CCC#N)c3n2)c1	-3%
111	COc1ccccc1-n1c(SCC(=O)Nc2ccccc2C)nc(O)cc1=O	-12%
112	CCOc1ccc(Nc2nc(Cc3nnc(SCC(=O)O)o3)cs2)cc1	-5%
113	O=C1c2ccccc2C(=O)N1Cc1nc2ccccc2o1	16%
114	CS(=O)(=O)c1ccc2nc(N)sc2c1	-4%
115	COc1ccccc1NC(=O)c1ccc(NS(C)(=O)=O)cc1	-4%
116	CCOc1ccc2[nH]cc(C(=O)N3CCN(CC)CC3)c(=O)c2c1	-16%
117	O=C(NC1(C(F)(F)F)NC(=O)N(Cc2cccnc2)C1=O)c1ccncc1 (stereo not drawn)	-2%
118	CCNC(=O)C1CC(=O)N(c2ccc(OCC)cc2)C1 (stereo not drawn)	-8%
119	Cc1cccc(-c2nc(CN3CCCC(C(=O)NC4CCC(C)CC4)C3)c(C)o2)c1 (stereo not drawn)	120%
120	CC1=C(C(=O)Nc2ccc(Cl)cc2)C(c2ccco2)NC(=O)N1 (stereo not drawn)	2%
121	O=C(Cn1c(CN2CCCCC2)nc2ccccc2c1=O)Nc1ccccc1	2%
122	CCCCc1ccc(C(=O)O)nc1	9%
123	COc1ccc(Cl)cc1NC(=O)C1CCCO1 (stereo not drawn)	5%
124	CCS(=O)(=O)c1nc2ccccc2n1CC(=O)N1CCOCC1	5%
125	COc1ccc(N2CCN(CCCNS(=O)(=O)c3c(C)noc3/C=C/N(C)C)CC2)cc1	103%

# Rewritten with each value named: entries from further up.
(109) CC(C)(C)c1ccc(C(=O)N2CCC(C(=O)NCC3CCCO3)CC2)cc1 (stereo not drawn)
  AmpC nodet inh = 49%
(124) CCS(=O)(=O)c1nc2ccccc2n1CC(=O)N1CCOCC1
  AmpC nodet inh = 5%
(122) CCCCc1ccc(C(=O)O)nc1
  AmpC nodet inh = 9%
(111) COc1ccccc1-n1c(SCC(=O)Nc2ccccc2C)nc(O)cc1=O
  AmpC nodet inh = -12%

# More entries:
no.	canonical_smiles	AmpC nodet inh
126	COc1ccc(S(=O)(=O)N2CCN(C)CC2)cc1C	10%
127	CCS(=O)(=O)C(=C1NCCO1)S(=O)(=O)CC	-8%
128	CN1CC(=O)N(C)c2ncn(Cc3ccccc3)c2C1=O	-10%
129	COc1cc(C(=O)NCCc2ccc3c(c2)OCCO3)ccc1OCC(=O)N1CCOCC1	42%
130	O=C(Cc1ccc(F)cc1)N(c1ccccc1)C1C=CS(=O)(=O)C1 (stereo not drawn)	15%
